ClpP mod: qHTS Assay for Activators of ClpP. ATP-dependent Clp protease proteolytic subunit (Bacillus subtilis (strain 168)), P80244. purified B. subtilis ClpP, FRET peptide cleavage, 20 min. Potency, µM (doses to about 57.5 µM), for inactives: top-dose activity change, negative = active. hit rate 1.9% among 340,000. AID 651965, 2013; active = well fitted falling curve with a large enough effect; inconclusive = small, poorly fitted or top-dose-only effect; inactive = no such curve, though single readings can be large or run the other way; further: the source files actives as falling curves though it sought activators and does not explain the sign; nearly all actives have a fitted effect of over 65% in size; many hits overshoot -100%
Target sequence (P80244 whole entry, looked up): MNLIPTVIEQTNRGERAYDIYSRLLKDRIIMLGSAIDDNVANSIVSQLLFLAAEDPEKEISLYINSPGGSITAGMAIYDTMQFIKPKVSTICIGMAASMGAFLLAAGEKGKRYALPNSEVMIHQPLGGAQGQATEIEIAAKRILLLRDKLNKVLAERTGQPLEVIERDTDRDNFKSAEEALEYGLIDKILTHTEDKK
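ClpP 10 microg/mL final, pH 8 Tris/KCl buffer with BSA, glycerol, Tween-20; compound pinned in; FRET-FV substrate; RT 20 min; Ex320/Em430; ΔFRET vs ADEP 5.8 microM, DMSO, no enzyme.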
PINK1 modulator: changes PINK1 expression; AID 624263; PINK1 immunofluorescence, high-content cytometry, 24 h; Potency, µM (series often up to 76.6 µM), without a hit: at the top dose activation (PINK1 increase), usual class: activators; hit rate 0.2% among 410,000; active = well fitted activation curve with a large enough effect; inconclusive = small, poorly fitted or top-dose-only effect; inactive = flat fitted curve, though single readings scatter; cell line not stated here;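 further: % of control where 0% means no effect; nearly all actives have a fitted effect of over 65% in size; a mitochondrial uncoupler was the plate control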
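Decision-based qHTS: stable cells, 24 h exposure to five compound concentrations, CCCP as control. Fixed cells stained for PINK1 plus nuclear, mitochondrial and cell markers, cytometer read.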
An asterisk follows results filed as active; ? = inconclusive. Potency means the concentration at half of the fitted maximal effect. These rows are one share of the data. The share of hits here may be higher or lower than overall.

SMILES	ClpP mod	PINK1 modulator
Cc1ccc(CNC(=O)Cc2ccc(NC(=O)N3CCSc4ncccc43)cc2)cc1	?	-0.5%
Cc1ccccc1OCc1nnc(SCc2cc(=O)c3cccc(F)c3[nH]2)n1C	1.8%	1.4%
Cc1ccc(-c2nc(-c3cc4cccc(OCc5ccccc5F)c4oc3=O)no2)cc1	-2.1%	0.8%
CCOC(=O)c1cccc(NC(=O)C2CCN(S(=O)(=O)c3cn(C)cn3)CC2)c1	-1.4%	-0.7%
COc1ccc2cc(C(=O)NCc3ccc4c(c3)CCN4C(=O)c3ccc(F)cc3)[nH]c2c1	1.2%	1.6%
CN(Cc1ccccc1)C(=O)[C@@H]1CCCN1C(=O)[C@@H]1CCCN1C(=O)c1cccc(Cl)c1	0.3%	1.6%
CCOc1ccc(C(=O)N2CCC(c3ccncc3)CC2)cc1	-1.2%	0.1%
COc1ccc(Cn2c(C(=O)O)c(CNCc3ccc(OC)cc3OC)c3ccc(C)cc32)cc1	-13.0%	-1.3%
N#Cc1cc2c(=O)n3ccccc3nc2n(-c2nnc(SCc3ccccc3)s2)c1=O	3.7%	-0.2%
N#Cc1ccc(-c2nc3c(Cl)cc(C(F)(F)F)cn3c2Cc2ccsc2)cc1	?	10.8%
Cc1ccccc1Nc1c(-c2cccs2)nc2cccc(C)n12	4.1%	2.0%
COc1cc(NC(=O)c2cc(-c3cccs3)on2)c(OC)cc1Cl	?	2.0%
Cc1ccc(-n2ncc(C(=O)Nc3ccc4c(c3)OCCO4)c2C2CCN(C(=O)OC(C)(C)C)CC2)cc1	-3.7%	-1.4%
Cc1ccc(NC(=O)CCC(=O)N2CCSc3ccccc32)cc1	1.4%	1.6%
O=C(C[n+]1ccccc1Cl)c1ccc2c(c1)CCCC2	-8.2%	2.0%
CCCc1nc2ccccc2n2c(-c3ccc(C)cc3)c3c(=O)n(C)c(=O)n(C)c3c12	-15.0%	0.1%
CC(C)C[C@@H]1O[C@H](C(C)C)Cc2[nH][nH]c(=O)c21	-0.1%	0.9%
CCCN1CNc2c(c(=O)[nH]c(=S)n2CCc2cc(OC)ccc2OC)C1	2.1%	-0.5%
COc1ccc(-c2cc3nc(N)cc(=O)n3[nH]2)cc1	4.0%	1.8%
Cc1ccc(C)c(NC(=O)Cn2cc(C(=O)C3CCCCC3)c3ccccc32)c1	-1.0%	0.8%
Cc1ccc(-c2nc3sc(CCNC(=O)c4ccco4)c(C)n3n2)cc1	-2.6%	-0.1%
COC(=O)[C@]12CCCCC=C1N(Cc1ccco1)C(=O)[C@H](CC(=O)NCc1ccc(OC)c(OC)c1)C2	-1.7%	3.4%
Cc1cc(NC(=O)CN2C(=O)CSc3ccc(S(=O)(=O)N(C)C)cc32)ccc1Br	-2.4%	0.6%
COc1ccc(CNC(=O)c2ccc3c(c2)N(Cc2cccc(Cl)c2)C(=O)c2ccccc2S3)c(OC)c1	-1.1%	0.4%
Cc1cc(C)cc(C(=O)NCCc2sc(-c3ccc(F)cc3)nc2C)c1	-12.4%	-0.3%

(listing goes on)
SMILES	ClpP mod	PINK1 modulator
O=S(=O)(NCC(c1ccco1)S(=O)(=O)c1ccccc1)c1cc(F)ccc1F (stereo not given)	1.5%	-1.0%
CCOC(=O)c1[nH]c2ccccc2c1NC(=O)c1cc(OC)cc(OC)c1	-2.3%	-0.1%
CCOC(=O)c1ccc(CN(Cc2ccccc2)S(=O)(=O)c2ccc(Cl)cc2)cc1	-3.2%	0.3%
Cc1ccc(CN2C(=O)CC(c3ccc(Cl)cc3)c3c(C)nn(-c4nc(C)cc(C)n4)c32)cc1 (stereo not given)	2.3%	5.8%
COc1ccc(NC(=O)CSc2c3c(nc4ccccc24)CCC3)cc1Cl	-4.9%	3.2%
Cc1ccc2cccc(NC(=O)c3ccc(-c4cc(Cl)ccc4Cl)o3)c2n1	-18.4%	-0.9%
Cc1ccc(-c2cnc(C3CC3)o2)cc1S(=O)(=O)Nc1cccc(C#N)c1	-2.9%	?
COc1ccc(-n2c(=O)c3c4c(sc3n(Cc3ccc(F)cc3)c2=O)CN(C(C)=O)CC4)c(OC)c1	-0.4%	-0.2%
CCCOc1ccc(C2c3c(-c4ccccc4O)n[nH]c3C(=O)N2Cc2ccncc2)cc1OCC (stereo not given)	-0.3%	3.0%
O=S(=O)(NCC(c1ccco1)S(=O)(=O)c1cccs1)c1ccccc1 (stereo not given)	2.0%	0.4%
CCCSCCCNC(=O)c1cc2n(n1)CCCN(Cc1ccc(C)cc1)C2=O	0.8%	-0.3%
Cc1ccc2oc3c(c(=O)c2c1)C(c1ccc(O)cc1)N(CCCN(C)C)C3=O (stereo not given)	-12.7%	0.5%
Cc1ccc(-n2c(=O)c3c4c(sc3n(Cc3ccccc3C)c2=O)CCC4)cc1C	0.6%	2.7%
CCOC(=O)c1ccc(CN(Cc2ccc(F)cc2)S(=O)(=O)c2ccc(F)cc2)cc1	-4.0%	1.5%
Cc1ccc(Cl)cc1N1CCN(CCCNC(=O)C2COc3ccccc3C2)CC1 (stereo not given)	-3.1%	0.2%
Cc1ccc(CNC(=O)C(CC(C)C)N2Cc3ccccc3C2=O)cc1 (stereo not given)	-0.1%	2.4%
O=C(NC1CC1)c1ccc(Cn2c(SCc3ccc(F)cc3)nc3cccnc32)cc1	5.0%	12.3%
Cc1ccc(C(c2sc3nc(-c4ccco4)nn3c2O)N2CCN(c3ccc(F)cc3)CC2)cc1 (stereo not given)	-2.3%	2.3%
CCCN1Cc2cccc(C(=O)Nc3ccc(C(C)=O)cc3)c2C1=O	-2.0%	1.5%
CCOC(=O)N1CCc2c(sc(NCc3ccc(N(C)C)cc3)c2C(=O)Nc2ccc(OC)cc2)C1	-1.1%	0.9%
COc1ccc(CCNC(=O)Cn2cc(S(=O)(=O)Cc3ccccc3Cl)c3ccccc32)cc1OC	0.3%	-1.0%
CCc1ccc(NC(=O)Cn2cnc3nc4c(cc3c2=O)CCCC4)cc1	-0.3%	1.6%
CN1CCN(c2ncc3c(n2)CCN(Cc2ccccc2Cl)C3)CC1	-0.5%	1.2%
CC(=O)N1c2c(cc(Br)cc2S(=O)(=O)NCc2ccccc2Cl)CC1C (stereo not given)	-0.1%	0.3%
O=C(CSC1=Nc2ccccc2C2=NC(CCC(=O)NC3CCCCC3)C(=O)N12)Nc1cccc(Cl)c1 (stereo not given)	-24.9%	0.5%

Part of the list above in order of heavy-atom count, lowest first.
SMILES	ClpP mod	PINK1 modulator
O=S(=O)(NCC(c1ccco1)S(=O)(=O)c1cccs1)c1ccccc1 (stereo not given)	2.0%	0.4%
CCOC(=O)c1[nH]c2ccccc2c1NC(=O)c1cc(OC)cc(OC)c1	-2.3%	-0.1%
COc1ccc(CCNC(=O)Cn2cc(S(=O)(=O)Cc3ccccc3Cl)c3ccccc32)cc1OC	0.3%	-1.0%

(continued)
SMILES	ClpP mod	PINK1 modulator
COc1ccc(-c2cc(C(F)(F)F)nc(NCc3ccc(F)cc3)n2)cc1	-8.0%	18.5%
O=C(Nc1c(-c2ccccc2)nc2ccccn12)c1ccc(Br)cc1	-2.3%	0.3%
COc1ccc(-c2nc(CS(=O)CC(=O)NCc3ccccc3Cl)c(C)o2)cc1OC (stereo not given)	?	-0.5%
COc1ccc(-c2nc(=N)sn2-c2ccccc2)cc1	-2.1%	0.9%
CCOc1ccc(-c2nc3c(C#N)c[nH]n3c2NC2CCCC2)cc1	0.3%	1.4%
COc1ccc(N2CCN(C3(c4ccccc4)C(=O)c4ccccc4C3=O)CC2)cc1	-10.5%	0.6%
COc1ccc(C(=O)N(Cc2ccc(N(C)C)cc2)Cc2ccco2)cc1Cl	-2.7%	0.5%
O=C(CCC(=O)N1CCOc2ccccc21)NCc1cccs1	-1.5%	0.0%
COc1cccc(-n2c(=O)c3c(C)c(C)sc3n(CC(=O)Nc3ccccc3OC)c2=O)c1	2.9%	0.5%
Cc1cccc(N2CCN(c3ncnc4c3nc3n4CCCCC3)CC2C)c1 (stereo not given)	-2.5%	0.7%
O=C(CSc1nc2ccccc2n1Cc1c(F)cccc1Cl)N1CCN(c2ccc(F)cc2)CC1	14.8%	2.0%
CCc1ccc2oc(-c3ccc(C)c(NC(=O)/C=C/c4ccco4)c3)nc2c1	-4.2%	4.3%
CCOC(=O)C(=O)Nc1c(C(=O)Nc2cccc(F)c2)oc2ccccc12	-1.3%	-0.5%
COc1ccc(N2CCN(CCCNC(=O)c3cc(Nc4ccc(OC)cc4OC)nc4ccccc34)CC2)cc1	-1.6%	0.9%
CCOC(=O)c1cnc2c(C)c(Cl)ccc2c1NCCc1ccc(OC)c(OC)c1	?	0.6%
O=C(COc1ccccc1)NCc1ccc2c(c1)CCN2C(=O)c1ccc(F)cc1	-1.7%	1.8%
COc1ccc(CCNC(=O)CCc2c(C)nc3c(c(C)nn3-c3ccc(C)c(C)c3)c2C)c(OC)c1OC	-13.1%	0.2%
CC(NC(=O)C(=O)Nc1c2c(nn1-c1ccc(F)cc1)CSC2)c1ccccc1 (stereo not given)	-0.3%	?
Cc1ccc(N(C)C(=O)Cn2cnc3onc(-c4ccc(F)cc4)c3c2=O)cc1C	-0.9%	-4.8%
CC(=O)c1ccc(NC(=O)c2nc3ccccc3n(C)c2=O)cc1	1.0%	0.1%
COc1ccc(Cn2ccc3nc(C)c(C(=O)N4CCN(c5ccc(OC)cc5)CC4)cc3c2=O)cc1	-1.6%	-0.1%
O=C(Nc1ccc(F)cc1C(F)(F)F)C1CCN(c2ncccn2)CC1	-19.9%	1.0%
O=C1CC(c2ccccc2)CC2=C1C(c1ccco1)n1nc(C(F)(F)F)nc1N2 (stereo not given)	4.4%	0.2%
CCOC(=O)c1cc(-c2ccc(C)cc2)n(CC(=O)Nc2cccc(C(C)=O)c2)c1C	1.1%	1.1%
CCOc1ccc(NC(=O)c2cccc(N3CCCS3(=O)=O)c2)cc1	0.4%	1.8%

Additional results follow.
SMILES	ClpP mod	PINK1 modulator
CCCNC(=O)c1c(C)nn(-c2cccc(C)c2)c1-n1cccc1	1.4%	3.2%
CC(Oc1ccc(Br)cc1)C(=O)Nc1ncn[nH]1 (stereo not given)	-19.0%	1.3%
Cc1ccc(N(C)C(=O)C2CCN(S(=O)(=O)c3cn(C)cn3)CC2)cc1	-4.4%	-1.5%
Cc1ccc(-c2nnc(NC(=O)c3ccc4c(c3)OCCO4)o2)c(C)c1	4.3%	0.5%
CCc1cccc(NC(=O)Cn2c(C(=O)OC)cc3sc(Cl)cc32)c1	-1.3%	0.0%
CCCCN(Cc1ccco1)C(=O)c1cc2c(s1)-c1c(C)cccc1OC2	4.6%	2.0%
Cc1ccc2oc(-c3cc(NC(=O)Cc4ccccc4)ccc3Cl)nc2c1	3.9%	-0.2%
CCCN1C(=O)C(Cc2nc3ccccc3c(=O)n2CC)c2ccccc21 (stereo not given)	0.3%	0.5%
COc1ccc(CNC(=O)C(C)n2c(=O)cc(C)c3c(C)nn(-c4ccccc4)c32)cc1 (stereo not given)	-7.0%	0.2%
COc1ccc(CCNC(=O)Cc2c(C)c3cc4c(C(C)(C)C)coc4c(C)c3oc2=O)cc1OC	0.3%	1.1%
CCNc1nc(NCc2ccco2)c2ccccc2n1	3.7%	4.1%
O=C(CC1Oc2ccccc2NC1=O)NCc1ccc(F)cc1 (stereo not given)	0.0%	1.6%
COC(=O)[C@]12CCCCC=C1N(Cc1cccc3ccccc13)C(=O)[C@H](CC(=O)N1CCCC1)C2	0.4%	-1.1%
C=CCn1c(SCC(N)=O)nc2ccccc2c1=O	-3.1%	0.1%
CCCSc1ncc(Cl)c(C(=O)N(Cc2ccccc2)c2ccc(OC)cc2)n1	-2.1%	1.3%
Cc1ccc(O)c(NC(=O)CCS(=O)(=O)c2nc(-c3ccc4c(c3)OCO4)cc(C(F)(F)F)n2)c1	-1.0%	5.8%
Cc1ccccc1NC(=O)c1nc(-c2ccncc2)no1	-2.0%	0.3%
O=C(Nc1cccc(C(F)(F)F)c1)C1CCN(c2nnc(-n3cccc3)s2)CC1	1.5%	-0.5%
Cc1ccccc1CN1C(=O)c2ccccc2Sc2ccc(C(=O)N3CCOCC3)cc21	1.3%	1.1%
CCc1ccccc1N(C)C(=O)c1cn(-c2cccc(OC)c2)c(=O)c2ccccc12	-22.1%	1.6%
CCN1CCN(CCCNC(=O)c2cnn(-c3ccccc3)c2C2CCN(C(=O)OC(C)(C)C)CC2)CC1	-1.4%	-0.2%
COc1ccc(-c2onc(C)c2C)cc1S(=O)(=O)NCc1ccc(Br)cc1	-1.5%	4.7%
COc1ccc(CNC(=O)Cn2c(SCC(=O)N(C)c3ccccc3)nc3ccccc32)cc1	1.9%	0.9%

Some of the entries so far, as labelled records.
O=C(CC1Oc2ccccc2NC1=O)NCc1ccc(F)cc1 (stereo not given)
  ClpP mod = 0.0%; PINK1 modulator = 1.6%

O=C(Nc1ccc(F)cc1C(F)(F)F)C1CCN(c2ncccn2)CC1
  ClpP mod = -19.9%; PINK1 modulator = 1.0%

COc1ccc(N2CCN(CCCNC(=O)c3cc(Nc4ccc(OC)cc4OC)nc4ccccc34)CC2)cc1
  ClpP mod = -1.6%; PINK1 modulator = 0.9%

COc1ccc(CNC(=O)Cn2c(SCC(=O)N(C)c3ccccc3)nc3ccccc32)cc1
  ClpP mod = 1.9%; PINK1 modulator = 0.9%
